# Source: PubChem (several laboratories)
# ALR inh: inhibitors of human ALR sulfhydryl oxidase, primary screen, biochemical, H2O2 detection, HRP-luminol luminescence, single point; inhibition, % (test concentration not listed); FAD-linked sulfhydryl oxidase ALR (Homo sapiens), P55789; hit rate 3.8% among 290,000; purified ALR, DTT oxidation; AID 485317, 2010;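 active = mean and each replicate at 75% or more; inconclusive = only one of the two met; inactive = neither met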;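 note: stock transfer was 7.5 nL into about 7.5 µL; 0% = neutral wells and 100% = wells with inactivated enzyme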
# Target sequence (P55789 whole entry, looked up): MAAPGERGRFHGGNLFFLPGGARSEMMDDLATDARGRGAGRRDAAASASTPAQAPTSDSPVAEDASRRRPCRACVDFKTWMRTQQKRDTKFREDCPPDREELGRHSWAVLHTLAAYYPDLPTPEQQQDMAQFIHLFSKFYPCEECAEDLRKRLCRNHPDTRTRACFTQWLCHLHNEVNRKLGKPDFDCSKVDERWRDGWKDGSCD
# Bfl-1 A1 inh: caspase 3/7 activation in MEF A1-2A-BIM cells, primary screen, A1 inhibitor project, cell-based, luminescence, HTS | Caspase-Glo 3/7 luminescence, 3 h; percent of clofoctol response, vehicle zero | caspase activation, % (concentration not given with the values) | hit rate 0.066% among 330,000 | AID 2462, 2010;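 active = over half of replicate activation scores above 10%, or exactly half above 10 with the replicate mean above 10; inconclusive = replicate mean below 10 yet half the replicates above 10; inactive = over half of replicates below 10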;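 note: wells of about 30 µL received 50 nL stock; many hits fall short of the cut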
# Beta apoptosis: inhibitors of cytokine-induced beta cell apoptosis, primary screen, luminescence | hit rate 0.8% among 300,000 | INS-1E cytokine-induced death, ATP luminescence, 48 h; percent of positive-control rescue, neutral wells zero | protection from apoptosis, % (no concentration beside the values);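 active = all replicates at 75% or more, or half of them and the mean; inconclusive = half reach 75% but not the mean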;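 note: 0% = cytokine-treated negative control wells and 100% = positive control rescue; higher means more ATP so stronger rescue from cytokine killing; wells of about 40 µL received 100 nL stock; the first replicate is given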
# T cruzi inh: inhibitors of intracellular T. cruzi growth, primary screen, luminescence, NIH3T3 host cells | AID 1885, 2009 | hit rate 1.4% among 300,000 | T. cruzi beta-gal in NIH3T3, 90 h | inhibition, % (concentration not given with the values);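 active = mean inhibition across valid replicates above about 55%, limit read from the data; inconclusive = mean below that limit but half or more replicates reach it; inactive = mean below it, under half of replicates reach it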;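 note: signal also drops with host cell toxicity which is not excluded here; 0% = plate median of DMSO wells and 100% = zero luminescence signal; higher percent means less beta-gal luminescence so fewer parasites; stock transfer was 50 nL into about 50 µL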
# B2AR ag: beta2AR agonists driving receptor internalization, primary screen, cell-based, FAP fluorogen, flow cytometry; AID 504454, 2011; Am2.2-beta2AR cells; reference of the scale not given here; hit rate 0.43% among 340,000; Beta-2 adrenergic receptor (Homo sapiens), P07550; response, % (no concentration beside the values);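 active = response above a set limit, near 3 SD of response in nonfluorescent compounds, cut at about 42% in these data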;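 note: stock transfer was 100 nL into about 11 µL; a reference agonist was the positive control; negative values mostly stem from fluorescent compounds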
# Target sequence (P07550 whole entry, looked up): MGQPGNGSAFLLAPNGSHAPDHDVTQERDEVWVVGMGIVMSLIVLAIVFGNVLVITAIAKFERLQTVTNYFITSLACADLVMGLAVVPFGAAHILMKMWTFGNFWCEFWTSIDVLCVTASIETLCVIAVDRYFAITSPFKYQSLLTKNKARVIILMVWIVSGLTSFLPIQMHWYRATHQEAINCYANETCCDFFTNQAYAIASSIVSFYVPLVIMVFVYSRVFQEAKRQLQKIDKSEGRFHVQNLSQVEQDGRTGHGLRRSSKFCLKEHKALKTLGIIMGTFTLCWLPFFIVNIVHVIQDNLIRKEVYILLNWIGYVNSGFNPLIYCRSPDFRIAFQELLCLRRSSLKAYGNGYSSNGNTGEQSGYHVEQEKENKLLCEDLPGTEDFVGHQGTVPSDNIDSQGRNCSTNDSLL
# Ecoli rRNA inh: reduced GFP signal of wild-type E. coli, primary screen, bacterial rRNA inhibitor project, GFP/RFP fluorescence, OD600, single point; E. coli WT GFP vs humanized-ribosome RFP mutants, 24 h; active compounds read low; DMSO median 0, no signal -100; GFP signal change (wild-type ribosome), % (concentration not given with the values); hit rate 1.6% among 350,000;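 active = significant combined selectivity score with lowered wild-type GFP, culture density cut under 30%, mutant RFP and density less affected; inactive = any of these conditions unmet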; note: one replicate is shown; some compounds called inactive have numbers as strong as hits
# Calb FLC: C. albicans growth inhibition with fluconazole, primary screen, CaCi-2 strain, Alamar Blue fluorescence. hit rate 0.57% among 300,000. growth inhibition, % (no concentration beside the values). C. albicans CaCi-2 (fluconazole-resistant clinical isolate) + fluconazole, 48 h;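 active = most replicates above 75%; inconclusive = exactly half above 75%; inactive = most below 75%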;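 note: all wells also contain fluconazole at 8 µg/ml as a sub-toxic cotreatment; 0% = median of DMSO wells and 100% = median of geldanamycin control wells; wells of about 8 µL received 7.5 nL stock; the first replicate is given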
# LANA-H2B inh: blockers of LANA interaction with H2A/H2B – biochemical, FP readout, HTS, primary screen; AID 2629, 2010; cell-free LANA-H2A/H2B peptide, fluorescence polarization; hit rate 0.6% among 320,000; inhibition, % (test concentration not listed); in the data active = inhibition mostly above about 10%, no sharp cut-off; inactive = mostly below about 6.7%;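 note: stock transfer was 7.5 nL into about 10 µL; 0% = median of vehicle wells and 100% = median of positive control wells; one replicate is shown; the record names a cut of 25% in any replicate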
# Ecoli rRNA inh OD600: recorded beside Ecoli rRNA inh, whose call it bears; OD600 change, %; measured here: OD600 growth;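 optical density of the mix in the first replicate; 0 = DMSO median and -100 = no signal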
# Ecoli rRNA inh RFP: also measured in Ecoli rRNA inh; calls as there; RFP signal change, %; measured here: RFP humanized mutant strains;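 first replicate; 0 = DMSO median and -100 = no signal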
# * hit, by the source's call; u = inconclusive; x = no result given; & = joins results of further samples. The list is partial; rates above refer to the full screens.
# Sequence of screens – ALR inh	Bfl-1 A1 inh	Beta apoptosis	T cruzi inh	B2AR ag	Ecoli rRNA inh	Ecoli rRNA inh OD600	Ecoli rRNA inh RFP	Calb FLC	LANA-H2B inh
- COc1ccc(-c2nnc(-c3cc(OC)c(OC)c(OC)c3)o2)cc1OC
  -29.4	1.4	9.2	-6.0	10.2	x	x	x	-3.2	-4.4
- Cc1ccc(OCCC(=O)OCC(=O)NCCc2ccc(Cl)cc2)cc1
  x	-0.2	x	-4.1	-2.1	7.2	2.3	1.0	-3.7	-0.4
- O=C(O)C(=O)/C(=C\c1ccsc1)c1ccc2ccccc2n1
  -12.5	-0.2	x	-5.4	-4.7	6.9	11.9	1.9	-9.0	1.9
- CCN(Cc1ccccc1)C(=O)COC(=O)c1cc(=O)[nH]c2ccccc12
  -0.9	0.4	1.7	-7.9	-7.5	4.7	1.2	-0.4	21.5	3.3
- CNc1nc(N)c(C(=O)Nc2cc(C)on2)s1
  -1.7	-1.8	-1.2	-13.0	4.1	24.4	17.2	4.0	-5.4	3.0
- Cc1cc(NC(=O)c2cc(-c3ccc(C)c(C)c3)nc3ccccc23)no1
  0.0	-0.6	2.8	2.0	-7.2	x	x	x	1.2	0.3
- CCCCNc1nc(-c2ccccc2)c(C(=O)OCC)cc1C#N
  6.5	-0.4	12.7	5.7	-17.1	x	x	x	-4.8	-3.6
- O=C1NC2(CCCCC2)N=C1c1ccc(F)cc1
  -8.8	-0.9	-1.5	6.7	5.9	x	x	x	-17.8	2.2
- COc1ccc(N2CC(C(=O)N3CCN(c4ccccc4)CC3)CC2=O)cc1 (configuration not stated)
  59.5	-0.4	-0.9	2.5	2.6	0.3	-7.0	-0.5	3.6	8.9
- CNC(=O)CSc1nnnn1-c1cc(C)ccc1C
  -4.5	-1.2	3.2	12.6	7.5	x	x	x	2.8	0.2
- O=C(Nc1ccc(Cl)c(Cl)c1)Nc1ccc(Br)cc1F
  0.2	0.5	x	53.3	14.7	x	x	x	-3.4	-1.7
- CC(=O)Nc1cccc(NC(=O)c2ccc(C(=O)Nc3cccc(NC(C)=O)c3)nc2)c1
  -12.7	0.0	-6.3	-16.5	-3.7	14.2	13.0	8.5	-7.2	4.7
- COc1ccc(S(=O)(=O)N2CCOC2CNC(=O)C(=O)NCc2cccnc2)cc1OC (configuration not stated)
  -4.0	0.5	-5.3	-5.0	-1.2	3.8	6.4	-8.5	8.2	-2.3
- CN(C)c1cc(N/N=C/c2ccc(Cl)cc2)nc(N(C)C)n1
  x	x	x	u	7.0	-53.9	-72.9	-12.4	97.7*	x
- O=C(NCC1CCCO1)C1CC(=O)N(c2ccc(F)c(Cl)c2)C1 (configuration not stated)
  -19.5	0.1	x	2.1	3.3	-0.8	-2.1	-0.4	3.5	-2.4
- Cc1[nH]c2c(C)cccc2c1CN1CCC(CO)(Cc2ccccc2)CC1
  1.7	0.1	-8.0	18.3	3.8	2.4	-9.7	10.7	-5.6	-3.1
- O=C(CN1C2CCCC1CC(NC(=O)C1CCCCC1)C2)NCc1ccc(F)cc1 (configuration not stated)
  11.7	0.7	2.7	7.3	-4.8	-6.2	-9.4	-8.0	-8.5	-6.8
- CCC(CC)c1nc2ccccc2c(=O)[nH]1
  -3.0	0.6	0.5	3.9	2.2	3.6	1.9	-12.3	5.0	-6.4
- COc1ccc(-c2csc(NC(=S)NC(=O)c3ccc4ccccc4c3)n2)cc1OC
  -2.3	0.2	15.4	-13.2	8.7	-5.7	24.9	-3.6	-2.2	6.4
- COC(=O)N1CCN(c2ccc(OC)cc2)CC1
  -1.8	-0.9	-2.7	-20.7	1.0	12.7	10.0	-10.3	8.4	0.0
- Cc1nn2c(=O)c(NC(=O)c3ccc(F)cc3)cnc2s1
  -1.6	-0.1	1.6	-1.0	-10.4	x	x	x	4.5	-3.8
- COc1ccc(S(=O)(=O)n2ccc(-c3cnc(-c4ccccc4)s3)n2)cc1
  5.1	-0.7	2.9	23.1	1.0	x	x	x	-4.1	4.6
- CCOC(=O)N1CCN(C(=O)c2cc(COc3ccc(F)cc3F)on2)CC1
  3.5	-0.4	x	-0.3	-6.2	-1.6	3.2	0.7	-7.3	-8.8
- O=C(Nc1ccccn1)c1cccs1
  -22.3	-7.8	-0.6	-4.1	-3.1	x	x	x	-1.9	3.6
- Cc1ccc(C(=O)O)cc1NC(=O)c1ccc2c(c1)C(=O)N(c1ccc([N+](=O)[O-])cc1)C2=O
  8.7	1.0	-0.3	1.3	2.8	8.5	14.0	1.7	-0.1	-0.5
- COc1ccccc1OC(=O)Nc1ccc(Cl)cc1
  -7.2	2.1	2.1	-2.3	1.2	-33.1	-43.7	-5.0	3.3	1.5
- O=C(CN1C2=NCCCN2c2ccccc21)c1ccc(Cl)cc1Cl
  -38.5	0.8	-0.1	50.7	-3.8	x	x	x	1.3	1.5
- CCCCc1cc(=O)oc2c3c(cc(OCC(=O)N4CCC[C@H]4C(=O)O)c12)OC(C)(C)CC3
  -5.3	-0.4	-6.5	4.7	-16.7	x	x	x	-2.2	-1.2
- CCOC(=O)N1CCC(N2CCN(S(=O)(=O)c3ccc4ccccc4c3)CC2)CC1
  0.8	0.0	2.5	18.6	7.5	x	x	x	-11.3	-7.4
- COc1ccc(N2CCN(S(=O)(=O)CCNC(=O)Cc3ccc([N+](=O)[O-])cc3)CC2)cc1
  -0.8	-0.1	-3.2	-20.1	3.1	12.6	20.1	-0.3	-2.4	-7.1
- COc1ccc(C(=O)O)cc1N1C(=O)Nc2ccccc2N1O
  -1.3	-0.1	-2.7	-9.9	-2.4	12.4	14.4	0.1	-7.8	4.5
- Cc1cccc(CN2CCC(Oc3ccc(C(=O)N4CCCC4)cc3)CC2)n1
  -6.0	0.5	2.7	-10.4	3.1	9.0	7.7	-1.6	-0.3	3.5
- CN(NC(=O)c1ccccc1F)c1nc(C(F)(F)F)nc2ccccc12
  -4.1	0.4	7.5	-59.6	0.0	8.8	10.8	-0.9	7.7	2.4
- COC(=O)[C@H](Cc1ccccc1)NC(=O)N1CCCCCC1
  -3.9	-0.3	-1.5	-10.0	-1.4	3.3	11.8	-5.3	-10.2	1.3
- O=C(O)c1ccc2ncc(NC(=O)c3ccc(F)cc3)c(=O)n2c1
  x	-5.0	1.8	4.8	-4.8	8.6	1.2	-5.3	0.5	1.4
- Cc1cc(C(=O)NC2CCCN(Cc3ccc(Cl)cc3)C2)c(C)o1 (configuration not stated)
  -0.6	-0.5	-6.7	52.9	2.4	1.4	-6.1	1.0	-3.2	-4.8
- COc1ccc(CC(=O)Nc2ccccc2N2CCCCC2)cc1OC
  2.8	-0.1	-6.0	10.0	-1.6	-22.9	-14.3	-0.6	-0.1	-4.6
- O=C(NCCC1=CCCCC1)C(=O)NCc1ccncc1
  -15.5	0.0	x	-3.1	2.4	6.7	7.1	1.4	-3.2	-0.3
- COc1cccc(NC(=O)c2nn(-c3ccc(OC)cc3OC)c(=O)c3ccccc23)c1
  x	0.4	-3.3	-13.7	14.5	x	x	x	-21.0	-2.0
- COc1ccc(S(=O)(=O)NC2CCCC2)cc1Br
  -2.8	1.3	-3.0	6.5	5.4	x	x	x	1.6	1.1
- O=C(CN(Cc1ccco1)C(=O)CNS(=O)(=O)c1ccc(F)cc1)NCc1ccco1
  2.2	0.8	0.9	-4.3	1.7	2.7	8.9	-2.3	-14.9	0.4
- CCN(c1ccccc1)S(=O)(=O)c1cccc(C(=O)O)c1
  -2.4	-0.3	-4.6	5.6	2.4	6.8	4.6	3.4	-13.6	-0.6
- COc1ccccc1N1CCN(CCCCOc2ccc(F)cc2)CC1
  0.5	-0.7	-5.9	1.4	0.6	x	x	x	-4.0	-2.0
- NC(=O)COC(=O)c1cc(S(=O)(=O)N2CCOCC2)ccc1N1CCCCC1
  -3.9	0.4	0.1	-2.4	4.9	x	x	x	0.2	-5.3
- O=C(O)/C=C/c1ccc(O)c(O)c1
  98.2*	0.8	1.4	-15.8	-7.0	7.5	12.1	9.1	-10.5	-0.6&15.6
- CCN1CCN(Cc2c(C)[nH]c3ccc(OC)cc3c2=O)CC1
  -13.9	0.8	0.5	-6.5	8.1	x	x	x	-1.7	5.6
- C/C=C/c1ccc(OCC(=O)NCc2ccccc2OC)c(OC)c1
  -0.1	0.5	-12.9	3.5	4.2	-14.2	-8.3	-2.4	-0.9	1.4
- Cc1ccc(-c2noc(CSc3nnc(Cc4ccccc4)n3-c3cccc(C)c3)n2)cc1
  -7.3	0.1	-11.1	14.1	1.0	-7.4	-12.3	2.7	21.2	-3.1
- CCOC(=O)/C(C(N)=NCc1ccco1)=C(/O)c1ccccc1
  x	-1.1	x	3.2	-7.6	x	x	x	44.1	0.9
- COc1ccccc1C(=O)COC(=O)CNS(=O)(=O)c1ccc(NC(C)=O)cc1
  21.4	-0.1	2.5	9.4	0.7	7.7	5.2	1.2	-11.9	3.1
- O=C(COC(=O)CN1C(=O)C2CCCCC2C1=O)NC1CCS(=O)(=O)C1 (configuration not stated)
  -6.2	0.1	-5.7	-8.1	-0.7	4.1	14.6	-2.0	4.1	-1.8
- CCOC(=O)c1ccc(NC(=S)NN2CCOCC2)cc1
  24.5	0.8	0.7	-5.3	-5.2	x	x	x	3.2	-2.6
- CC(C)(C)NC(=O)NC(=O)CN1CCN(c2ccccc2)CC1
  35.1	0.4	-4.6	-7.6	-3.2	-1.8	-6.4	-3.9	-29.3	-1.4
- NS(=O)(=O)c1ccc(CCNC(=O)Cc2ccc(S(=O)(=O)N3CCOCC3)s2)cc1
  -40.5	0.2	1.6	-9.6	13.8	5.0	3.4	-0.3	-11.5	4.0
- CC(=O)Cn1c(CN2CC(C)CC(C)C2)nc2c1c(=O)n(C)c(=O)n2C (configuration not stated)
  x	0.0	-0.1	-15.6	2.9	x	x	x	-16.2	3.5
- COC(=O)C1CCN(C(=O)c2cc(-c3ccc(Cl)s3)nc3ccccc23)CC1
  x	-2.2	100.8*	x	0.6	x	x	x	x	-1.8
- Cc1ccc(SCC(=O)OC(C)C(=O)Nc2ccc(S(N)(=O)=O)cc2)cc1C (configuration not stated)
  x	-1.2	x	-7.3	-3.6	-4.5	-7.4	1.8	-2.8	2.8
